GALR2 ag – GALR2 (human) receptor agonism | O43603 | AID 803 | 140,000 compounds, 0.48% hits | activation, %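 (tested at 5 µM)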 | GALR2-expressing cells, agonist activation read-out;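 active means above mean plus 3 SD of all compounds, about 5% in these data, not always enough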;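 further: 0% = vehicle buffer wells and 100% = reference agonist at full effect; tested in CHO reporter cells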
Target sequence (O43603 whole entry, looked up): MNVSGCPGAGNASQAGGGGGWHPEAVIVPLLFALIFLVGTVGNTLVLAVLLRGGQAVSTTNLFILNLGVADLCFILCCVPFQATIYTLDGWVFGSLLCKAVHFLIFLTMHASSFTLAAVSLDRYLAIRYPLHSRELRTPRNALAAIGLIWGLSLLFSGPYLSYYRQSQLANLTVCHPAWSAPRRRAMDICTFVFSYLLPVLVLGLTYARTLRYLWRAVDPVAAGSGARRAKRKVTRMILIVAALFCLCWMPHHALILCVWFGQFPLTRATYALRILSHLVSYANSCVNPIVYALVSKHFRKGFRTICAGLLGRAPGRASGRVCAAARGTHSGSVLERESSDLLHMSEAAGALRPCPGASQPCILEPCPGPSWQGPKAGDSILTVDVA
PKD1 kinase inh – blocks activity of human protein kinase D1 | Q15139 | PKD1 kinase fluorescence polarization assay | inhibition, %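 (about 10 µM by stock and volumes)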 | 200,000 compounds, 0.056% hits | AID 797;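 active means inhibition of 50% or more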;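 further: controls were vehicle for no effect and a reference inhibitor for full effect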
RGS16-Gao – RGS16-Galphao interaction regulator (human) | 220,000 compounds, 0.38% hits | O15492+P09471 | binding response (% of control), % at 10 µM | bead-based flow cytometry RGS16-Galphao binding, fluorescence; actives lie on both sides;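 active means below 25% or above 175%, edge rows of some plates excepted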;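 further: Galphao activated by GDP with aluminum fluoride before binding; 100% = wells without compound and 0% = beads without RGS; some results beyond the cut were filed as inactive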
Target sequence (O15492 whole entry, looked up): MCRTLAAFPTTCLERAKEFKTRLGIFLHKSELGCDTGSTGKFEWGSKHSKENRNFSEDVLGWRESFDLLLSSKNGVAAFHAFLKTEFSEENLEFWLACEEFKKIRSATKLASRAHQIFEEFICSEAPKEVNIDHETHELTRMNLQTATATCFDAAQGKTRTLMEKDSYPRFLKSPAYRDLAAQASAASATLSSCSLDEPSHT
Target sequence (P09471 whole entry, looked up): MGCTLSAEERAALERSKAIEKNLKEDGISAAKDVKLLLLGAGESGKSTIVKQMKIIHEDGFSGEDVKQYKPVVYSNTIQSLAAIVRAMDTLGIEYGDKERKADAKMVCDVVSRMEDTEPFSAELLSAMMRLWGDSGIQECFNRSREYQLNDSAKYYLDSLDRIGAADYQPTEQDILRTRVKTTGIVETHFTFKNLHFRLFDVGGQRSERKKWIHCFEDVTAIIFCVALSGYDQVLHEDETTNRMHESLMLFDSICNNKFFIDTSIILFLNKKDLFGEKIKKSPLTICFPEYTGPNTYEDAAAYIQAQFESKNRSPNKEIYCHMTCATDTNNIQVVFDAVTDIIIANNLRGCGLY
HSV replic up – HSV replication enhancement. HSV replication augmentation in cells, fold increase. maximum fold increase. 220,000 compounds, 0.005% hits. AID 1956;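 active means peak rise of 1.5-fold or more in the series; tested in PC3 cells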;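 further: first round at 10 µM; read as green reporter fluorescence; hits show the peak of a series up to 25 µM; 1 = signal of infected wells without compound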
Insulin prom inh – TRM-6 insulin promoter activity inhibition; TRM-6 cells (human fetal islet line), insulin promoter-eGFP reporter, imaging; reporter expression induced with tamoxifen; inhibition, % at 2 µM; 130,000 compounds, 0.9% hits; AID 1273;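 active means inhibition above the mean plus 3 SD, with well images judged a real hit on visual review, cut at about 60% in these data, passing the limit was not always enough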
Insulin prom inh cell count – second read-out of Insulin prom inh, no call of its own (marks repeat the call); normalized cell count, %; measured here: cell count, toxicity; reference of the scale not given here;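 cells exposed to compound for 48 h; stained nuclei by imaging scaled within each plate; lower means fewer cells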
HSV replic up primary fold – recorded beside HSV replic up, whose call it bears; fold increase; compound at 10 µM; measured here: primary screen fold increase 10 uM; tested in PC3 cells;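 GFP signal in the first replicate; 1 = infected wells without compound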
* hit, by the source's call; i = inactive; · = no result given; [ ] = remark or other dose.

SMILES	GALR2 ag	PKD1 kinase inh	RGS16-Gao	HSV replic up	HSV replic up primary fold	Insulin prom inh	Insulin prom inh cell count
O=C1CSC(c2ccccn2)N1c1ccc(C(F)(F)F)cc1 (stereo unspecified)	·	·	99	i	0.97	·	·
Cc1cccc2cc(CN(CCCN(C)C)C(=S)NCCc3ccccc3)c(=O)[nH]c12	·	-6	96	i	0.8	·	·
Cc1cc(NS(=O)(=O)c2ccc(NC(=O)CSc3nnc(-c4ccco4)n3N)cc2)nc(C)n1	-1.1	5	93	i	1.1	·	·
COC(=O)c1sc(NC(=O)c2cc(-c3ccccc3)nc3ccccc23)c(C#N)c1C	-3.8	-2	27	i	1.1	27	90
NC(=S)N/N=C/c1ccc(-c2ccc(SC(F)F)cc2)o1	·	·	93	i	1	·	·
O=C(c1ccc(S(=O)(=O)Nc2ccccc2)cc1)N1CCOCC1	-0.1	-6	96	i	0.95	·	·
Cc1n[nH]c(C)c1S(=O)(=O)N1CCCC(C(=O)NC2CCCCC2)C1 (stereo unspecified)	·	9	100	·	·	·	·
c1ccc(NCCCNc2ccccc2)cc1	-0.5	5	95	i	0.92	-431	63
COc1ccc(C2C(C(=O)N3CCC(C(N)=O)CC3)CC(=O)N2c2ccc(OC)cc2)cc1 (stereo unspecified)	·	-8	101	i	0.97	·	·
Cc1cc(NC(=O)CSc2ccc3nnc(CCNC(=O)c4ccccc4)n3n2)no1	·	1	98	i	1	·	·
COc1ccc(C(=O)Nc2c(N)nc(SCC(=O)N3CCC(C)CC3)[nH]c2=O)cc1OC	-3.7	13	80	i	0.92	·	·
Cn1cc(CNC(=O)Nc2ccc3c(c2)OCO3)cn1	-0.8	-6	106	i	0.85	49	237
OCCNc1nc(OCC(F)(F)F)nc(N2CCN(C34CC5CC(CC(C5)C3)C4)CC2)n1	-1.2	0	105	i	0.94	-7	114
COc1ccc(/C(C)=N/Nc2ccc(C(=O)O)cc2)c(OC)c1	-1.2	-11	99	i	1.1	14	103
O=C(Cc1ccccc1)N1CCN(C(=O)c2cccs2)CC1	-1.9	3	101	i	0.97	-19	116
O=C(NCCS(=O)(=O)c1ccc(Cl)cc1)c1ccc(F)cc1	·	-5	66	i	0.9	7	86
Cc1ccc(Oc2nnc(-c3ccccc3)c3ccccc23)cc1	0.1	-7	105	·	·	14	77
CCn1c(C)nc2cc(C(=O)N/N=C/c3ccc(O)cc3)ccc21	-0.4	-6	127	i	0.99	·	·
Cc1cc(-c2nnc(SCC(=O)c3ccc4c(c3)OCCO4)o2)no1	-0.6	3	107	i	0.96	17	107
COc1ccc(NC(=O)Nc2ccc(F)cc2)c(C)c1	·	-5	105	i	0.92	·	·
CC(=O)c1ccc(NC(=O)Nc2ccc3c(c2)nc(C)n3C)cc1	·	-1	101	i	0.93	·	·
CCN(CC)c1cc(C)c2cc(NC(=O)c3ccccc3OC)ccc2n1	·	5	97	i	0.73	20	85
Cc1cccc(NC(=O)Nc2ccc(C#N)cc2)n1	-3.2	-1	104	i	0.7	20	102
CS/C(N)=N/N=C/c1ccc([N+](=O)[O-])cc1	-3.6	-3	99	i	0.92	24	101
CCCCN(CCCC)CC(O)COc1ccccc1C(=O)Nc1ccccc1 (stereo unspecified)	·	5	99	i	0.81	·	·
O=C(Nc1cccc(C(F)(F)F)c1)c1cc2c(s1)-c1ccccc1OC2	0.0	-13	110	i	0.83	-6	75
COc1ccc2c(-c3ccccc3)cc(SCC(=O)NC(N)=O)nc2c1	·	-5	105	i	0.79	-8	104
CCOc1ccc(NC(=O)CC2C(=O)Nc3ccccc3N2C(=O)c2ccccc2)cc1 (stereo unspecified)	·	-1	102	i	0.97	·	·
COc1ccccc1NC(=O)c1c([N+](=O)[O-])c(C(C)(C)C)nn1C	·	·	101	i	1.1	·	·
CCC(Sc1ncccc1C(=O)OCCN1CCCC1=O)C(=O)NCc1ccco1 (stereo unspecified)	-2.8	-13	105	i	0.75	·	·
Cc1ccc(C(=O)n2c(N)nc3ccccc32)cc1	·	-1	104	i	0.96	·	·
O=C1N(c2ccccc2)C2CS(=O)(=O)CC2N1c1ccc(Cl)c(Cl)c1 (stereo unspecified)	-3.7	0	99	i	0.7	-21	114
COC(=O)CCSCC(=O)N1N=C(c2ccc(OC)cc2)CC1c1cccc(OC)c1OC (stereo unspecified)	·	-3	102	i	0.86	-180	102
COc1ccc(-c2coc3cc4oc(=O)cc(-c5ccccc5)c4cc23)cc1F	-0.3	7	107	i	0.84	-33	34
CC12CCC(C(=O)Nc3ccc(Br)cn3)(OC1=O)C2(C)C (stereo unspecified)	·	·	101	i	0.97	·	·
Cc1ccc(O)c(N=Nc2ccc(S(=O)(=O)N3CCOCC3)cc2)c1	·	6	110	i	0.95	-67	90
COc1cc2c(cc1NC(=O)CN1CCN(S(=O)(=O)c3ccccc3F)CC1)oc1ccccc12	-1.5	6	98	i	0.81	-37	125
Cn1nnnc1SCc1ccccc1F	-0.7	-13	94	i	0.99	·	·
CCOC(=O)c1ccc(-n2ncc(C(=O)OCC)c2N)cc1	-0.4	-3	73	i	1.1	-426	56
CCN(CC)S(=O)(=O)c1ccc(Cl)c(C(=O)OC)c1	-0.8	-6	104	i	0.89	-3	149
O=C(c1csc(Nc2cccc3ccccc23)n1)N1CCCC1	·	·	97	i	0.99	·	·
CN(CC(=O)Nc1cc(S(=O)(=O)N2CCCC2)ccc1Cl)Cc1cccs1	·	·	101	i	1	·	·
Cc1cccc(N2CCN(C(=O)c3ccccc3NC(=O)C3CCCCC3C(=O)O)CC2)c1 (stereo unspecified)	-0.9	-5	104	i	1	·	·
Cc1cc(C)c(S(=O)(=O)N(CC(=O)N2CCCC2)C2CCCCC2)c(C)c1	-1.7	-3	108	i	0.96	-12	127
COc1ccc(Cl)cc1NC(=S)N(Cc1ccc(C(=O)O)cc1)Cc1ccc(OC)c(OC)c1	·	-3	100	i	0.93	·	·
CC(C)C(=O)NNC(=O)CN1CCN(c2nc(-c3ccccc3)cs2)CC1	·	-12	103	i	1	17	113
COc1ccc(/C=N/n2cnn(Cc3ccccc3Cl)c2=S)cc1OC	·	-5	104	i	0.96	·	·
O=C(Nc1ccccc1)C(Cc1ccccc1)NC(=O)C12CC3CC(CC(C3)C1)C2 (stereo unspecified)	-1.8	0	102	i	0.93	·	·
N#C/C(C(=O)N1CCOCC1)=C1/SC(Cc2ccc(F)cc2)C(=O)N1c1ccccc1 (stereo unspecified)	-1.0	2	108	i	1	6	35
COc1ccc(/C=C/C(=O)OCC(=O)NCCC2=CCCCC2)cc1S(=O)(=O)N1CCOCC1	·	-7	102	i	0.93	·	·

(continued)
SMILES	GALR2 ag	PKD1 kinase inh	RGS16-Gao	HSV replic up	HSV replic up primary fold	Insulin prom inh	Insulin prom inh cell count
COCCn1c(Cc2ccccc2)nnc1SCC(=O)Nc1cc(C)on1	-1.9	1	97	i	0.7	-7	93
COc1ccc(N2C(=S)NC3CS(=O)(=O)CC32)cc1 (stereo unspecified)	·	·	102	i	0.91	·	·
Cc1ccc(NC(=O)COC(=O)c2ccc(OCc3c(C)noc3C)cc2)cc1S(=O)(=O)N1CCOCC1	-0.5	0	99	i	0.98	·	·
COc1cc(-c2nnc(SCC(=O)N(Cc3ccccc3)C(C)(C)C)o2)cc(OC)c1OC	-1.0	-10	93	i	1.1	-35	99
Cc1[nH]c2ccccc2c1C(=O)COC(=O)C1CC(=O)N(Cc2ccco2)C1 (stereo unspecified)	-0.6	3	100	i	0.98	·	·
CCCNC(=O)CN(CCc1ccccc1)S(C)(=O)=O	-0.7	-5	105	i	1	-93	47
CCn1c(CNC(=O)Cc2ccc(OC)cc2)nnc1SCC(=O)Nc1nccs1	-1.6	-1	110	i	0.77	-34	95
O=C(NCCSc1ccc(Br)cc1)c1ccccc1	·	0	99	i	1	·	·
O=C1OC2(O)C3C4C=CC(C4)C3C(=O)N2c2ccccc21 (stereo unspecified)	·	·	97	i	1.1	·	·
CCCn1c(SCC(=O)Nc2cccc(C(=O)OCC)c2)nnc1-c1ccoc1C	0.1	3	98	i	0.99	·	·
O=C(COc1ccc(C(=O)O)cc1)Nc1cccc(C(F)(F)F)c1	·	-2	109	i	0.91	-71	113
COc1ccc(C(=O)CSc2ccccc2C(=O)O)cc1	·	-7	102	i	1.2	-17	65
Cc1cc(C)n(CCNc2nc3nonc3nc2N2CCCCC2)n1	·	-8	104	i	1	·	·
CC1CCc2ccc(F)cc2N1S(=O)(=O)c1cccs1 (stereo unspecified)	-0.3	-4	95	i	1.1	69	184
COC(=O)c1cn(CCOc2ccc(C)cc2)c2ccccc12	-2.0	3	101	i	0.91	30	111
Cc1c(OCc2nn[nH]n2)ccc2c3c(c(=O)oc12)CCC(C)C3 (stereo unspecified)	-0.2	-1	93	i	0.8	·	·
Cn1cnc([N+](=O)[O-])c1Oc1cccc(O)c1	-2.0	1	102	i	0.74	32	94
COc1ccccc1OCC(=O)Nc1cccc(N(C)S(C)(=O)=O)c1	-2.9	-7	81	i	0.93	-10	78
Cc1cccc(N(C(=O)c2nsc(Cl)c2Cl)C(C(=O)NC2CCCC2)c2ccc(O)cc2)c1C (stereo unspecified)	-0.6	0	112	i	0.96	28	90
O=C(NC1CCCC1)NS(=O)(=O)c1ccccc1Cl	-1.1	-14	111	i	0.97	17	85
CCN1CCN(C(=O)C2(NC(=O)Nc3ccccc3Cl)CCCCC2)CC1	-2.4	6	97	i	0.94	15	102
O=C(COc1ccc(Br)cc1)NNC(=S)NC(=O)c1ccccc1[N+](=O)[O-]	-1.0	0	131	i	0.87	-19	77
C=CCNc1cc(C(F)(F)F)nc(-c2ccccn2)n1	-3.0	-8	105	i	0.8	14	68
CC(=O)N1CCN(S(=O)(=O)c2cccc(C(=O)OCC(=O)NC(=O)c3cccn3C)c2)CC1	-0.7	9	185*[activator]	·	·	38	93
COc1ccc(C(=O)CSC2=C(C#N)C3(CCCCC3)C(C#N)=C(N)N2)cc1	-1.9	-2	100	i	0.92	·	·
COc1ccc(CCNC(=O)CCCCCN2C(=O)c3ccccc3C2=O)cc1	-1.8	1	104	i	0.93	-12	83
COc1ccc(OC)c(S(=O)(=O)N(C)CC(=O)N2CCN(c3ccccc3F)CC2)c1	0.1	7	101	i	0.86	-33	118
Fc1cccc(Cc2noc(CN3CCC(c4ccncc4)CC3)n2)c1	·	-5	98	i	1.1	·	·
CCOC(=O)C(C(=O)OCC)N(C#N)c1nc(OC)nc(N(C)C)n1	-1.3	-5	93	i	0.86	21	81
COc1ccc(C(=O)NCC(=O)OCC(=O)c2cc(OC)c(OC)c(OC)c2)cc1OC	-0.9	-7	91	i	0.89	·	·
CCC(C)NC(=O)C1CCN(S(=O)(=O)N2CCCC2)CC1 (stereo unspecified)	-2.5	-4	102	i	0.85	19	87
Cc1ccc(-c2c(C)n([O-])c3c([n+]2=O)CCCCC3)o1	-2.8	7	105	i	0.93	·	·
CCN(c1ccccc1)S(=O)(=O)c1ccc(OCc2c(C)noc2C)cc1	-1.0	-3	101	i	1	-17	96
Cc1csc(SC(C)C(=O)NCC(=O)Nc2ccc(F)c(F)c2F)n1 (stereo unspecified)	·	-3	100	i	0.91	·	·
COc1ccccc1/C=C/CN1CCCC(CO)(Cc2cccc(Cl)c2)C1 (stereo unspecified)	·	-4	97	i	0.74	·	·
COc1ccc(CSCCN)cc1Cl	0.2	0	96	i	0.85	-19	155
N#CCSCC(=O)Nc1ccccc1	-2.3	-4	102	i	1.2	-288	139

Screens (PubChem BioAssay)
